# High-throughput results: PubChem, National Center for Advancing Translational Sciences (NCATS)
# VDR inhibitor: inhibitors of human vitamin D receptor. Potency, µM, for inactives: max response, negative = inhibition, hits mostly inhibitors. VDR-SRC2-3 peptide fluorescence polarization, 2 h. P11473. 0.93% of 400,000 active; active = well fitted inhibition curve with a large enough effect; inconclusive = small, poorly fitted or top-dose-only effect, or another doubt; inactive = no such curve, though single readings can be large or run the other way; also: series mostly up to about 120 µM
# Target sequence (P11473 whole entry, looked up): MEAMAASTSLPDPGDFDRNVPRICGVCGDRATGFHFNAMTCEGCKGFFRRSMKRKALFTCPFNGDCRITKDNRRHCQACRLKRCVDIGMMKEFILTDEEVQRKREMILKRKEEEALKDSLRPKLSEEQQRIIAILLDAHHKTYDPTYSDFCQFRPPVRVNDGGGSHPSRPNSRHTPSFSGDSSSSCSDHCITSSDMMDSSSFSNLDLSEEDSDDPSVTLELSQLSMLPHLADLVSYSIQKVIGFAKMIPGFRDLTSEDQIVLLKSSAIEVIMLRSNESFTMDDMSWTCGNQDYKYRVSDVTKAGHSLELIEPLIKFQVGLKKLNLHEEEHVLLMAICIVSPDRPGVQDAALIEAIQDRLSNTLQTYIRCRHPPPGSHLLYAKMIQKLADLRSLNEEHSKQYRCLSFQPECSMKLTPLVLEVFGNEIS
#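 Measured by FP: displacement of SRC2-3 coactivator peptide from VDR by library compounds, following a two-hour ambient incubation.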
# Numbers without * were called inactive; ? = inconclusive; & = joins results of further samples. % is scaled to controls: 0 for no effect and ±100 for the full control effect; potency is read from the fitted curve at half-maximal effect.
# Preview:
SMILES,VDR inhibitor
COc1ccc(NC(=S)NC(NC(=O)C(C)C)C(Cl)(Cl)Cl)c([N+](=O)[O-])c1 (centres undefined),3.1%
CCN(CC)CCC(=O)Nc1ccc2c(c1)N(C(=O)CN(CC)CC)c1ccccc1CC2,-3.0%
Cc1ccc(NC(=S)NNC(=O)c2ccccc2OC(F)F)cc1,-2.0%
CCc1cc2c(SCc3nc4sc(C(C)=O)c(C)c4c(=O)[nH]3)ncnc2s1,-1.9%
O=C(Nc1ccc(C(=O)OCc2cc(=O)n3nc(C4CC4)sc3n2)cc1)c1ccccc1,-4.6%

# The whole of this part, from the first entry:
SMILES,VDR inhibitor
COc1ccc(NC(=S)NC(NC(=O)C(C)C)C(Cl)(Cl)Cl)c([N+](=O)[O-])c1 (centres undefined),3.1%
CCN(CC)CCC(=O)Nc1ccc2c(c1)N(C(=O)CN(CC)CC)c1ccccc1CC2,-3.0%
Cc1ccc(NC(=S)NNC(=O)c2ccccc2OC(F)F)cc1,-2.0%
CCc1cc2c(SCc3nc4sc(C(C)=O)c(C)c4c(=O)[nH]3)ncnc2s1,-1.9%
O=C(Nc1ccc(C(=O)OCc2cc(=O)n3nc(C4CC4)sc3n2)cc1)c1ccccc1,-4.6%
CCC(=O)c1ccc(OCC(=O)NCc2ccccc2CN2CCCC2)cc1,-13.4%
Fc1ccccc1N1CCN(Cc2nc(-c3ccccc3)no2)CC1,7.9%
CCOC(=O)c1ccc(N2CSC3=C(C#N)C(c4cccs4)CC(=O)N3C2)cc1 (centres undefined),89.1µM*
COc1ccc(CN2CCC(n3nccc3NC(=O)C3CCCC3)CC2)cc1,-8.0%
COc1ccc(Cn2nnnc2CN2CCN(c3ccc(OC)cc3)CC2)cc1,-4.0%
CC(=O)c1c(C)[nH]c(C(=O)NNC(=O)COc2cc(C)ccc2C(C)C)c1C,10.2%
CCCCCOc1ccc(C(=O)OCC(=O)Nc2cc(C)on2)cc1,11.9%
CC(=O)Nc1cccc(/C(C)=N/NC(=O)c2cccc(S(=O)(=O)N3CCOCC3)c2)c1,-9.7%
Cc1ccc(S(=O)(=O)N2CCCC(c3nc(-c4ccc(C)o4)no3)C2)cc1 (centres undefined),13.4%
Cc1ccc(CN2C(=O)C(Cc3ccccc3)Nc3ncnc(N4CCN(c5ccccc5)CC4)c32)cc1 (centres undefined),17.5%
Cc1ccc2[nH]c(C)c(CCNC(=O)c3c(N)no[n+]3[O-])c2c1,-16.0%
CCOC(=O)C1CCN(c2cc3c(cc2NC(=O)c2ccccc2OCC)n(C)c(=O)n3C)CC1,1.2%
S=C(N=Nc1ccccc1)NNc1ccccc1,?
CSc1ccc(CCNC(=O)CCc2nnc3ccc(N4CCCC4)nn23)cc1,-2.4%
Cn1ncc(Cl)c1C(=O)N1CCCc2ccccc21,3.9%
CCCOc1cccc(C2/C(=C(\O)c3ccc4c(c3)OCCO4)C(=O)C(=O)N2CCCn2ccnc2)c1 (centres undefined),8.9%
Cc1ccc2nc(-c3cccc(S(=O)(=O)N(C)C)c3)cn2c1,10.5%
O=[N+]([O-])c1ccc2nc(C3CCCCC3)[nH]c2c1,8.8%
CC(=O)N1CCOc2ccc(S(=O)(=O)NCCc3ccc(C)cc3)cc21,-8.3%
CCN(CC)CCNC(=O)Cn1nc(C)c2c(C)n(-c3ccccc3)nc2c1=O,-7.5%
CCC(C)c1ccc(NC(=S)N2CCN(C(=O)C3CCCO3)CC2)cc1 (centres undefined),-9.4%
COc1ccc(NC(=O)C(=O)NCC2CCCN2S(=O)(=O)c2cc(C)ccc2C)cc1 (centres undefined),14.1%
CC(=O)c1ccc(S(=O)(=O)N(Cc2cc3cc4c(cc3[nH]c2=O)OCCO4)CC2CCCO2)cc1 (centres undefined),8.6%
CCOC(=O)C(C)(C)Sc1nc2c(cnn2-c2ccc(F)cc2)c(=O)[nH]1,11.2%
COc1cccc(CNC(=O)c2ccc(S(=O)(=O)N3CCOCC3)cc2)c1,0.0%
COc1cccc(N/C(N)=N/c2nc(C(F)(F)F)cc(C(F)(F)F)n2)c1,-8.5%
CSc1c2c(nc3ncnn13)CCC2,-1.9%
O=C(c1csnn1)N1CCC2(CC1)CCN(c1ncccn1)CC2,-2.1%
Cc1cc(NC(=O)Cn2cnc3sccc3c2=O)no1,-4.1%
CCn1c(SCC(=O)N2CCN(c3cccc(Cl)c3)CC2)nc2ccccc2c1=O,-16.2%
O=c1cc(O)nc(SCc2ccccc2Cl)[nH]1,10.5%
CCCCCCCCSc1nnc(/N=C/N(C)C)s1,21.4%
COC(=O)CSCc1nc(-c2ccc(C(=O)OC)cc2)oc1C,12.7%
CCCCN1C(=O)c2[nH]nc(-c3ccccc3O)c2C1c1cccc(OCc2ccccc2)c1 (centres undefined),-3.2%
COc1ccc(NC(=O)c2cccc3c(Br)cccc23)cc1,-3.2%
O=C(NCCc1csc(-c2ccc(C(F)(F)F)cc2)n1)c1ccc(F)c(F)c1,7.3%
COC(=O)C1=C(C)N(C)C(C)=C(C(=O)OC)C1c1ccncc1,-1.4%
O=S(=O)(NCCc1ccccc1)c1ccc(N2CCCCS2(=O)=O)cc1,3.8%
Cc1cc(C(=O)Nc2ccc(C)c(S(=O)(=O)N3CCOCC3)c2)c(C)o1,11.4%
CSCC[C@H](NC(=O)[C@@H]1Cc2ccccc2CN1)C(=O)NC(C)c1ccccc1 (some centres undefined),-5.5%
O=C(Nc1ccc(/C=C/c2nc3ccccc3o2)cc1)c1ccc(F)cc1,-0.8%
O=C(Cn1c(=O)oc2ccc(Cl)cc21)NC1CCCCC1,?
COc1cccc(N(C(=O)c2cccs2)c2nc3ccccc3s2)c1,7.9%
CCOC(=O)c1ccc(N2CCN(c3cccc(Cl)c3)CC2)c(NC(=O)Nc2ccc(OC)cc2OC)c1,13.9%
CCOC(=O)N1CCC(N(CCN(C)C)C(=S)Nc2ccccc2OC)CC1,-12.6%
Cc1cc(C(=O)OCC(=O)N2CCCCCC2)ccc1[N+](=O)[O-],-6.0%
N=c1n(Cc2ccccc2)c2ccccc2n1CC(O)COc1ccc(Cl)cc1Cl (centres undefined),6.1%
Cc1cc(=O)[nH]c(N2CCN(C(c3ccccc3)c3ccccc3)CC2)n1,-5.8%
Nc1nc(N2CCCCC2)nc(N(c2ccccc2)c2ccccc2)n1,-15.8%
CCOc1ccc(S(=O)(=O)N(CC)CC(=O)NC2CC2)cc1,3.4%
Cc1cc(C)cc(S(=O)(=O)c2cnc3ccccc3n2)c1,39.8µM*
Cc1cccc(NS(=O)(=O)c2ccc(C)c(C(=O)NCC(c3ccco3)N3CCCCC3)c2)c1 (centres undefined),-8.5%
O=C(NC(Cc1ccccc1)c1ccc2c(c1)OCCCO2)c1ccccc1F (centres undefined),9.3%
Cc1ccc(NCCC(=O)c2ccc(Br)cc2)cc1,-15.2%
CCOC(=O)N/N=C/c1ccc(N2CCOCC2)s1,0.0%

# Later entries:
SMILES,VDR inhibitor
Cc1cccc(C)c1N(CC(=O)N1CCCC1)S(C)(=O)=O,-4.3%
O=C(Nc1ccc(Oc2ccc(C(F)(F)F)cn2)c(Cl)c1)C1CC1,8.1%
COc1cc(-c2nc(-c3ccccc3)c(-c3ccc(Br)cc3)[nH]2)cc(OC)c1O,12.6%
O=C(NCCCn1ccnc1)c1cc(C(=O)C2CC2)c[nH]1,-0.7%
COCc1[nH]nc2c1C(c1ccc(OC)cc1)C(C#N)=C(N)O2 (centres undefined),18.4%
O=C(Cn1c(=O)sc2ccccc21)Nc1ccccc1,-7.7%
CO/N=C(\Cn1ncc(N2CCCC2)c(Cl)c1=O)c1ccc(Cl)cc1,4.0%
CC(=O)c1cccc(NC(=O)CSc2ncc3c(n2)-c2cc(Cl)ccc2N(Cc2ccccc2)S3(=O)=O)c1,1.3%
CCCOc1ccc2ccccc2c1/C=N/n1c(C)nnc1-n1nc(C)cc1C,4.1%
O=C(Cc1cccc(C(F)(F)F)c1)Nc1cccc(S(=O)(=O)N2CCCC2)c1,-5.0%
Cc1ccc(C)c(-c2csc(-c3cccnc3)n2)c1,-12.6%
CN1CCOCCOCCN(C)C1=O,-5.9%
O=C(Nc1ccccc1)Nc1nc(-c2ccccc2)cs1,-0.8%
COC(=O)c1ccc(CNC(=O)c2ccc3oc(C(C)C)nc3c2)cc1,-18.8%
O=C(Cc1c(F)cccc1Cl)NC1=NCCS1,11.0%
O=C(c1cccc(S(=O)(=O)NCc2ccccc2)c1)N1CCN(c2cccc(C(F)(F)F)c2)CC1,4.1%
COc1ccc(OC)c(C(=O)NC(CC(N)=O)c2ccc(N3CCN(c4ccccc4)CC3)c([N+](=O)[O-])c2)c1 (centres undefined),-5.4%
COc1cc(Cl)c(C)cc1NC(=O)COc1ccc(C)nc1[N+](=O)[O-],-21.2%
C=CCOc1nc2c(c(=O)n(C)c(=O)n2C)n1Cc1c(Cl)cccc1Cl,2.9%
O=C(NCCCCCCNC(=O)c1cncc(O)c1)c1cncc(O)c1,3.9%
C=CCn1c(C)cc(C(=O)CSc2nc(N)cc(N)n2)c1C,5.5%
CSCc1ccc(C(=O)Nc2cc(C)cc(C)c2)cc1,2.1%
COc1ccccc1-c1cc(C(=O)NCCCn2ccnc2)no1,17.5%
COc1ccc(S(=O)(=O)N2CCN(C(=O)C3CCC3)CC2)cc1,5.8%
Cc1cc(CNC(=O)C2CCC(=O)N(Cc3ccccc3F)C2)on1 (centres undefined),9.8%
CC(C)Cn1cnc2sc3c(c2c1=N)CCCC3,9.4%
CCOc1ccccc1NC(=O)C1CCN(C(=O)NCc2ccccc2)CC1,3.4%
COc1ccc(N2CCN(c3ncnc4c3[nH]c3ccccc34)CC2)cc1,7.7%
O=S(=O)(NCC1(N2CCOCC2)CCCCC1)c1ccc(Cl)cc1C(F)(F)F,-7.5%
CN(CC(=O)Nc1c(Cl)cccc1Cl)C(=O)C1=COCCO1,9.9%
Cc1cccc(/C=C/c2onc(C)c2[N+](=O)[O-])n1,?
Cc1ccc(S(=O)(=O)c2nnn3c2nc(N2CCN(c4ccccc4F)CC2)c2cc(Cl)ccc23)cc1C,-5.8%
C[n+]1c(-c2ccccc2)cc2c(=Cc3ccc([N+](=O)[O-])cc3)c3ccccc3n21,?
CCC(=O)c1ccc(Oc2ccc(C(=O)c3ccc(C)cc3)cc2[N+](=O)[O-])cc1,-10.7%
CCCCNC(=O)c1sc(=S)n2c1[nH]c(=O)c1ccc(C(=O)NCCc3ccc(OC)c(OC)c3)cc12,?
CC(C)C(NC(=O)c1ccc(F)cc1)C(=O)NC1(C)CCS(=O)(=O)C1 (centres undefined),-15.7%
CCOC(=O)C1=C(CC)OC(N)=C(C#N)C1c1ccc(OC)c(OC)c1OC (centres undefined),10.3%
CN(C(=O)c1ccc(OC2CCN(CCc3ccccc3)CC2)cc1)C1CCCCC1,-1.3%
O=C(Cc1cccc(NC(=O)C2CCN(C(=O)c3ccccc3)CC2)c1)Nc1cccc(C(=O)N2CCCCC2)c1,-4.0%
O=C(CN1CCCCCC1)Nc1cccc(NC(=O)CN2CCCCCC2)c1,-4.1%
CCC(=O)Nc1cccc(-n2nnnc2SCC(=O)N2CCCCC2)c1,15.9%
CCOc1cc(/C=N/O)cc(Br)c1OCc1ccc(Cl)cc1,-0.7%
Cc1cc(Nc2ccccc2)c2c([N+](=O)[O-])ccc(C)c2n1,-0.4%
C[C@H](NC(=O)c1ncn(C)c1C(=O)N[C@@H](C)c1ccccc1)c1ccccc1,-14.6%
O=Cc1cccn1-c1cccc([N+](=O)[O-])c1,-12.7%
Cc1cccc(Cn2nnc3c(=O)[nH]c(C4CCCN(C(=O)c5ccc(C(C)(C)C)cc5)C4)nc32)c1 (centres undefined),14.9%
CCC(NC(=O)NNC(=O)c1ccncc1)(C(F)(F)F)C(F)(F)F,7.3%
Cc1cnc(C(=O)Nc2ccccc2-c2ccc(C)o2)cn1,-4.9%

# Continued, starting with the last three of the part before.
SMILES,VDR inhibitor
Cc1cccc(Cn2nnc3c(=O)[nH]c(C4CCCN(C(=O)c5ccc(C(C)(C)C)cc5)C4)nc32)c1 (centres undefined),14.9%
CCC(NC(=O)NNC(=O)c1ccncc1)(C(F)(F)F)C(F)(F)F,7.3%
Cc1cnc(C(=O)Nc2ccccc2-c2ccc(C)o2)cn1,-4.9%
CCOc1ccc(NS(=O)(=O)c2cc(C(=O)N(CC)CC(=O)NCc3cccs3)ccc2C)cc1,?
Cc1ccc(/C=N/n2c(COc3ccccc3)n[nH]c2=S)cc1,-4.1%
COc1cccc(-c2cccc(NC(=O)C3CCN(Cc4ccon4)CC3)c2)c1,17.0%
C#CCOCCOCCOCCNc1nc(N2CCN(C(=O)[C@H]([C@@H](C)O)n3cc(CCCCN)nn3)CC2)nc(N2CCN(C(=O)[C@H](CCCCN)n3cc(CC(C)O)nn3)CC2)n1 (some centres undefined),-12.2%
Cn1c(SCC(=O)N2CCOCC2)nnc1-c1cccc(NC(=O)c2ccccc2F)c1,-5.7%&-3.3%
CC(=O)NS(=O)(=O)c1ccc(NC(=S)NC(=O)c2ccco2)cc1,21.5%
CCCc1cc(C(=O)NCc2cccs2)no1,-9.2%
N#Cc1nc(-c2ccco2)oc1N1CCN(c2cccc(Cl)c2)CC1,9.0%
Clc1ccc(N2CCN(c3ncnc4c3oc3ccccc34)CC2)cc1,-7.2%
Cc1ccccc1NC(=S)/C(=C(\[O-])c1ccc(C)c([N+](=O)[O-])c1)[n+]1ccccc1,-1.9%
CCCCn1c(N)c(N(CC(C)C)C(=O)c2cc(-c3ccc(OC)c(OC)c3)nc3ccccc23)c(=O)[nH]c1=O,13.0%
COc1ccc(OC)c(CNS(=O)(=O)c2c(C(=O)N3CCCCCC3)c(C)n(C)c2C)c1,8.8%
CC(C(=O)OCC(=O)c1ccc(Br)cc1)N1C(=O)C2C3CCC(C3)C2C1=O (centres undefined),-2.8%
COc1ccccc1NC1=NC2(CCCC2)N=C(N)N1,-3.5%
O=C1NC(=O)c2cc(NC(=O)C3COc4ccccc4O3)ccc21 (centres undefined),3.5%
CC(C)(C)C1=Nn2c(nnc2-c2ccco2)SC1,-12.0%
CC/C(=C\C(=O)c1cccnc1)Nc1ccc(C)c(C)c1,-16.6%

# Not all compounds are listed. The share of hits here may be higher or lower than overall.
